Screens deposited in PubChem by several laboratories.
PrP 5UTR inh = inhibition of PrP 5' UTR reporter expression. AID 488862. actives 0.35% (n = 340,000). cell-based PrP 5' UTR mRNA reporter, plate reader. inhibition, % (test concentration not listed);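 active = every replicate at 50% or more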;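 also: 0 = median of the neutral control wells; tested in H4 reporter cells; numbers are from one replicate; inactives centre near -14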
Sa RN4220 lethal = kills Staphylococcus aureus RN4220; actives 0.33% (n = 330,000); inhibition, % (test concentration not listed); S. aureus RN4220 growth, OD600, 16 h; AID 1259311;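 active = z-score of -3 or lower and OD600 up to 0.18 on both plates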;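 also: plate controls were untreated cells for no effect and reference antibiotic for full effect; stock transfer was 100 nL into about 80 µL; one replicate is shown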
Mtb hypoxia rep = inhibitors of hypoxia-regulated fluorescent reporter in Mycobacterium tuberculosis; M. tuberculosis hypoxia-regulated fluorescent reporter, fluorescence; actives 0.1% (n = 300,000); fluorescence inhibition, % (test concentration not listed); AID 1159583;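 active = 35 to 45% if threefold the growth effect, above 45% if 1.5-fold the growth effect; inactive = the rest, general growth blockers included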;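 also: wells of about 50 µL received 100 nL stock; 0% = vehicle wells and 100% = reference inhibitor wells; whole bacteria with a GFP reporter of the hypoxia response; strong numbers were not always called active; many hits fall short of the cut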
ugtP null kill = kills S. aureus RN4220 lacking UgtP. growth inhibition, % (concentration not given with the values). S. aureus RN4220 ugtP deletion, OD600 growth, 16 h; some inactives read as strong as hits. actives 0.54% (n = 330,000). AID 1259309;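 active = z-score under -3 and OD600 up to 0.15 on both plates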;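 also: plate controls were untreated wells for no effect and antibiotic for full effect; wells of about 80 µL received 100 nL stock; the first replicate is given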
Autofluor counter = flagged as autofluorescent in microsphere protease counterscreen; compound autofluorescence counterscreen, microsphere flow cytometry; active compounds read high; fluorescence intensity (concentration not given with the values); AID 624483; actives 3.1% (n = 360,000);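 active = at least 3 SD above the mean of all compounds, about 16000 in these data; inconclusive = too few beads counted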;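 also: 100 nL of 1 mM stock went into each well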
BJeLR lethal = BJeLR cell viability loss | BJeLR (HRASV12) viability, CellTiter-Glo ATP luminescence, 48 h; reference of the scale not given here | inhibition, % (concentration not given with the values) | actives 0.17% (n = 300,000);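 active = replicate mean above 50%; inconclusive = above 50% but judged a plate artefact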;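 also: 50 nL library stock added to about 25 µL; numbers are from one replicate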
Mtb hypoxia rep growth = further read-out of Mtb hypoxia rep, marked with its call; growth inhibition, %; measured here: M. tuberculosis growth (absorbance);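 0% = vehicle and 100% = reference antibiotic; read after six days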
Starred values were filed as active, the others as inactive; ? = inconclusive; nt = no result given; & = joins results of further samples. Not a hit list; any-hit rate near 4.1%.

compound	PrP 5UTR inh	Sa RN4220 lethal	Mtb hypoxia rep	Mtb hypoxia rep growth	ugtP null kill	Autofluor counter	BJeLR lethal
COc1cccc(C2CCCCN(C)C2=O)c1 (configuration not stated)	-0.4	2.2	7.8	1.2	3.3	4008	7.2
CC(C)c1ccc(NC(=O)COC(=O)CC2CCCC2)cc1	-6.2	4.6	0.2	-2.1	2.9	6488	nt
N#Cc1ccc(N/N=C/c2cn(-c3ccccc3)nc2-c2ccccc2)c([N+](=O)[O-])c1	0.5	nt	nt	nt	nt	2525	-2.9
Fc1ccc(-c2csc(-c3ccncc3)n2)cc1	-24.2	1.5	0.1	3.3	6.2	4238	-10.5
CC(C)CC(=O)N=C1SC2CS(=O)(=O)CC2N1Cc1ccccc1Cl (configuration not stated)	nt	5.2	8.1	3.1	0.4	5564	1.7
CC(/C=C/c1ccco1)=N/NC(=O)c1ccccc1Cl	-8.2	nt	nt	nt	nt	9439	-4.4
CCOc1cc(C=NNC(N)=O)cc(Br)c1OCc1ccccc1	nt	-5.8	4.8	5.7	8.0	nt	nt
CCn1c(SCC(=O)NN=Cc2cc(OC)c(O)c(OC)c2)nc2ccccc21	nt	4.3	7.9	8.3	-9.4	nt	nt
Cn1c(CC(=O)NNC(=O)c2ccc(F)cc2F)nc2ccccc21	-14.8	0.6	1.7	-0.4	1.8	3455	nt
CCOc1ccccc1NC(=O)Nc1ccc2c(c1)CCC2	-21.2	-4.8	6.9	-1.0	-4.3	4693	-1.7
Cc1ccc(C(=O)Nc2ccc(C)c(S(=O)(=O)N3CCOCC3)c2)c(C)c1	-22.1	-2.0	-9.0	-5.8	-1.5	5961	-4.4
CN(/N=C/c1ccncc1)c1cnn(-c2ccc(F)c(Cl)c2)c(=O)c1Cl	-33.7	nt	nt	nt	nt	20433*	2.8
C/C(=N\NC(=O)c1ccccc1O)c1ccc(NC(=O)Cc2ccccc2)cc1	-19.7	nt	nt	nt	nt	4255	2.6
CC1CC(=NNC(N)=S)c2cc(Cl)ccc2S1 (configuration not stated)	nt	1.4	-6.3	-14.5	-6.9	nt	nt
CCC(C)(C)n1nnnc1CN(Cc1cc2cc(OC)ccc2[nH]c1=O)C1CCCC1	-25.6	9.6	8.9	5.3	-15.4	10627	3.7
CC(C)NC(=O)COc1coc(CN2CCN(c3ccccc3F)CC2)cc1=O	-18.8	0.3	7.7	8.0	0.0	3824	4.1
Clc1ccc(OCCN2CCOCC2)cc1Cl	-11.8	4.7	11.7	9.7	2.7	3154	-2.1
CSc1nc2ccc3nc(NC(=O)c4ccccc4)sc3c2s1	-49.1	-5.9	nt	nt	0.1	4431	-4.5
CCOc1ccc2[nH]c(=O)c(CN(CCO)C(=O)c3ccccc3F)cc2c1	-10.5	8.3	0.2	-4.1	5.1	2363	-2.5
CC(Sc1ccc(Cl)cc1)C(=O)NCc1ccc2c(c1)OCO2 (configuration not stated)	-10.3	10.8	-3.9	9.9	6.6	3238	3.0
Cc1cccc(C(=O)Nc2ccc(C(=O)/C=C/c3ccncc3)cc2)c1	-17.4	28.8	0.6	5.5	-0.6	3286	24.8
O=c1[nH]c(O)c(C=Nc2ccccc2Oc2ccccc2)c(=O)[nH]1	-2.5	1.7	0.2	2.0	-2.8	3788	-7.9
Cc1ccc(C)c(N2CCN(S(=O)(=O)c3ccc4c(c3)CC(C)N4C(=O)C3CC3)CC2)c1 (configuration not stated)	-3.0	-2.7	1.4	2.4	11.9	6882	-9.6
Cc1cc(CNC(=O)C(C)n2nc(C)c([N+](=O)[O-])c2C)c2ccccc2n1 (configuration not stated)	-1.3	5.4	7.1	15.9	3.0	3291	9.3
Cc1cc([N+](=O)[O-])ccc1NC(=O)C1CCCO1 (configuration not stated)	-15.1	3.7	1.8	1.4	4.7	2632	-0.2
Cc1cc(C)nc(Nc2n[nH]c(COc3cccc4ccccc34)n2)n1	-44.5	nt	nt	nt	nt	10825	-1.9
CNC(=O)NC(=O)CSc1nc2cc(C(=O)OC)ccc2c(=O)n1-c1ccccc1	-13.4	4.1	16.5	6.5	1.0	12599	-4.8
C[n+]1ccc(-c2cc[n+](C)cc2)cc1	-6.1	43.3	-3.4	9.1	7.5	4652&6081	nt
O=C1CC(c2ccc3c(c2)OCCO3)Oc2ccccc21 (configuration not stated)	-46.2	4.8	3.1	-1.3	3.4	4292	-11.0
CCCOC(=O)c1ccc(NC(=O)C2C3CCC(C3)C2C(=O)O)cc1 (configuration not stated)	-27.5	0.8	12.3	4.5	10.7	1911	-2.8

Following part
compound	PrP 5UTR inh	Sa RN4220 lethal	Mtb hypoxia rep	Mtb hypoxia rep growth	ugtP null kill	Autofluor counter	BJeLR lethal
CCOC(=O)C1CCCN(CC(=O)c2ccc(F)cc2)C1 (configuration not stated)	-48.5	-1.9	0.6	7.0	4.5	3423	0.8
Cc1ccc(NC(=O)C2COc3ccccc3O2)cc1S(=O)(=O)N1CCCCC1 (configuration not stated)	-12.9	7.8	9.2	10.4	1.0	3234	nt
CSc1nc2ccc3nc(NC(=O)c4ccc(Cl)s4)sc3c2s1	-15.1	3.4	nt	nt	2.1	4047	5.8
Cc1cc(C(=O)NC2CCCC2)c2ccccc2n1	-15.6	1.3	3.7	-5.3	1.2	4825	-5.7
c1coc(CN2CNc3nc4ccccc4n3C2)c1	12.1	-0.6	0.1	-4.5	0.2	4172	5.8
COc1ccc(N(CC(=O)N/N=C/c2cccnc2)S(=O)(=O)c2ccccc2)c(OC)c1	5.9	nt	nt	nt	nt	5188	-10.5
CCOC(=O)C1=C(C)N(CC)C(=S)NC1c1ccccc1OC(F)F (configuration not stated)	-19.8	1.5	-2.4	-2.0	-12.3	3120	-10.0
O=C(NCCc1ccccc1)C1CCC(CNS(=O)(=O)c2ccc(F)cc2)CC1 (configuration not stated)	-21.5	1.9	-3.5	2.0	0.7	5029	-2.8
O=c1ccc2c(-c3ccccc3S(=O)(=O)O)c3ccc(O)c(O)c3oc-2c1O	4.7	45.2	nt	nt	5.4	3893	nt
CCCCCC(=O)NN=C(C)c1ccccn1	nt	5.6	-3.1	3.4	9.7	nt	nt
Cc1sc2nc(SCC(=O)Nc3ccc(S(N)(=O)=O)cc3)[nH]c(=O)c2c1C	-7.6	7.9	6.2	2.9	-3.0	5365	-2.3
CCOc1ccc(N=C2Sc3nc4ccc(C)cc4cc3CN2CCOC)cc1	-25.6	-0.5	1.0	-3.9	31.1	4419	4.9
CC[C@@]12C(=O)N(c3ccc(C)cc3)C(=O)N1C(c1ccc(OC)cc1)C1C(=O)N(C(C)(C)C)C(=O)C12 (some centres not stated)	nt	6.5	-3.2	-9.4	0.4	nt	nt
CON=C1CCCc2c(C(=O)NN)sc(SC)c21	nt	0.9	11.3	0.0	-0.4	nt	nt
O=C(NC(CO)Cc1ccccc1)c1ccco1 (configuration not stated)	nt	8.4	13.0	5.4	14.6	nt	nt
O=C(NCC(c1ccco1)N1CCCCC1)c1ccc(S(=O)(=O)Nc2ccccc2)cc1 (configuration not stated)	-9.0	0.8	6.0	8.8	9.1	?	0.3
O=C(CSCc1ccc(Cl)cc1)NN=C1CCCC1	-31.9	1.4	8.4	9.2	0.8	2111	14.6
CC1(C)CC(=O)C(C=NCCC2=CCCCC2)=C(O)C1	-22.6	5.5	6.8	5.5	6.1	12265	-6.7
O=C(O)CCC(=O)Nc1ccc(S(=O)(=O)N2CCCC2)cc1	-12.9	-17.8	nt	nt	-0.2	3353	-3.9
CC(=NNc1ccc(C(=O)O)cc1)c1ccc(Cl)s1	nt	7.6	-1.0	10.4	-5.1	nt	nt
CCOc1ccc(CNCc2ccc(C(=O)O)cc2)cc1OC	-20.3	0.8	5.9	-5.9	5.0	4178	4.0
CN(C(=O)COC(=O)c1ccccc1NC(=O)c1ccco1)C1CCS(=O)(=O)C1 (configuration not stated)	-26.1	2.8	-5.6	6.3	0.6	4230	-17.0
O=C(CSc1ncccn1)Nc1ncc(C(F)(F)F)cc1Cl	-8.6	-0.5	1.1	1.0	2.8	3971	1.4
Cn1c(CNC(=O)c2cccs2)nnc1SCC(=O)Nc1ccc(Cl)cc1	-32.0	0.5	2.1	7.2	-4.9	21585*	-19.5
O=C(NCc1ccccn1)c1n[nH]c(=O)c2ccccc12	-25.0	4.1	0.3	-4.5	-6.7	4435	0.4
O=c1[nH]c(C2CCN(S(=O)(=O)/C=C/c3ccccc3)CC2)nc2c1nnn2Cc1ccccc1	-19.9	-1.6	-5.4	-1.8	19.2	4301	9.9
O=C(Nc1ccc(O)cc1)/C(=C\c1ccncc1)NC(=O)c1ccccc1	-62.3	5.3	13.6	12.2	0.6	3875	3.2
COc1ccc(C(=O)Nc2ccccc2C(=O)NC(C)C)cc1OC	-12.2	0.4	nt	nt	-2.7	2765	1.8
CC1(C)CC(CC(=O)NC(=S)Nc2ccc([N+](=O)[O-])cc2)C(=O)O1 (configuration not stated)	-12.6	-1.6	nt	nt	6.2	5255	-4.9
COCCC(=O)N1CCC(Oc2ccc(C(=O)N3CCCCC3COC)cc2)CC1 (configuration not stated)	-23.9	0.9	3.1	5.2	1.5	5362	-8.0

Going on with the list:
compound	PrP 5UTR inh	Sa RN4220 lethal	Mtb hypoxia rep	Mtb hypoxia rep growth	ugtP null kill	Autofluor counter	BJeLR lethal
O=c1c2cc3ccccc3n2cnn1Cc1ccccc1F	-30.4	-6.5	4.2	8.0	-8.3	2906	1.5
COC(=O)c1cccc(S(=O)(=O)N2CCN(c3nc4ccccc4s3)CC2)c1	-23.2	6.1	2.8	-0.1	3.4	9118	-3.8
CCOC(=O)c1cccc(NC(=O)CSc2nncn2-c2ccccn2)c1	-20.2	3.6	14.9	-2.3	13.8	2958	5.1
COc1ccc(C2C=C(C34CC5CC(CC(C5)C3)C4)NC(=S)N2)cc1OC (configuration not stated)	-33.8	0.0	-14.6	-6.2	-9.3	7592	3.9
COc1cc(/C=N/NC(=O)c2cnccn2)cc(OC)c1OC	-18.7	nt	nt	nt	nt	9963	7.7

An excerpt from the list above, for reference:
compound	PrP 5UTR inh	Sa RN4220 lethal	Mtb hypoxia rep	Mtb hypoxia rep growth	ugtP null kill	Autofluor counter	BJeLR lethal
O=c1c2cc3ccccc3n2cnn1Cc1ccccc1F	-30.4	-6.5	4.2	8.0	-8.3	2906	1.5
COC(=O)c1cccc(S(=O)(=O)N2CCN(c3nc4ccccc4s3)CC2)c1	-23.2	6.1	2.8	-0.1	3.4	9118	-3.8
CCOC(=O)c1cccc(NC(=O)CSc2nncn2-c2ccccn2)c1	-20.2	3.6	14.9	-2.3	13.8	2958	5.1
COc1ccc(C2C=C(C34CC5CC(CC(C5)C3)C4)NC(=S)N2)cc1OC (configuration not stated)	-33.8	0.0	-14.6	-6.2	-9.3	7592	3.9
COc1cc(/C=N/NC(=O)c2cnccn2)cc(OC)c1OC	-18.7	nt	nt	nt	nt	9963	7.7
